High-throughput results as filed in PubChem BioAssay.
CDC25B-CDK2 inh: human CDC25B-CDK2/CyclinA binding inhibition; HTRF CDC25B-CDK2/CyclinA binding, anti-His/anti-Flag; stronger effect = higher value; z-score (test concentration not listed); hit rate 0.72% among 94,000; AID 1259370;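 also: score is relative to mean and SD of negative controls; strong numbers were not always called active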
HIV TAR-Tat: HIV-1 TAR-Tat binding disruption | HIV-1 TAR RNA, Tat peptide displacement FRET; stronger effect = higher value | z-score (concentration not given with the values) | hit rate 0.6% among 100,000 | AID 1259389;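 also: score is relative to mean and SD of negative controls; some compounds called inactive have numbers as strong as hits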
* marks the source's active call; other numbers are inactive results; nt = no result given.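 The calls were made as follows: active = z-score from 3 up in half or more of its runs; inactive = the rest.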

SMILES	CDC25B-CDK2 inh	HIV TAR-Tat
O=c1c2sccc2n(Cc2cc(=O)n3ccccc3n2)c(=O)n1-c1cccc(C(F)(F)F)c1	-3.7	nt
O=C(CSc1nc(-c2ccco2)cc(C(F)(F)F)n1)Nc1ccc(-n2cccc2)c(Cl)c1	-0.01	0.78
COc1cccc(-c2n[nH]c3c2C(c2ccccn2)N(C)C3=O)c1 (configuration not stated)	-1.3	-0.14
CC1CCC(NC(=O)C2CCC(CNc3c(N4CCOCC4)c(=O)c3=O)CC2)CC1 (configuration not stated)	-2.8	nt
COc1cc(OC)cc(N2C(=O)c3ccncc3C2=O)c1	nt	1.7
CN(C)c1nc2ccc(O)cc2s1	-3.3	2.3
Cc1ccc(-c2noc(C3CCCN(S(=O)(=O)c4ccccc4)C3)n2)cc1 (configuration not stated)	nt	3.1
C=CCn1ccc2cc(S(=O)(=O)N3CCCN(C(=O)NCC(=O)OCC)CC3)ccc21	nt	1.2
Fc1cccc(Nc2c3c(nc4ncnn24)CCC3)c1	nt	0.22
Clc1ccc(OCc2cn3ccccc3n2)c2ncccc12	-2.6	-1.1
CCn1c(C)c(C(C)=O)c(N2CCN(CCO)CC2)nc1=S	-0.88	nt
CCS(=O)(=O)Nc1ccc2c(c1)c1c(n2S(=O)(=O)CC)CC(C)(C)CC1=O	0.57	0.2
Cc1ccc(S(=O)(=O)Nc2ccc(-c3nc4ccccc4s3)cc2)cc1	-2.9	2.6
CC(C)CCNC(=O)CSc1nc(-c2ccco2)nc2cc(=O)[nH]n12	nt	-0.12
O=C1C(=O)N(CCCn2ccnc2)C(c2ccco2)/C1=C(\O)c1ccc(F)cc1 (configuration not stated)	-1.8	1.2
Cc1cc(NC(=O)c2cnc3sccn3c2=O)no1	-0.73	nt
COCCc1nn2c(=O)cc(COC(=O)c3cccc(C)c3)nc2s1	nt	1.2
CC1SC(NC(=O)COc2ccccc2)=NC1=O (configuration not stated)	-0.54	2.6
Cc1nc2sc(C(c3ccc(F)cc3)N3CCN(c4ccccc4F)CC3)c(O)n2n1 (configuration not stated)	-1.9	nt
COc1ccc(-c2noc(-c3nnn(-c4ccc(C)cc4)c3C)n2)cc1	nt	-7.2
COc1ccc(-n2c(C)cc(CNS(=O)(=O)c3cccc4nsnc34)c2C)cc1	nt	1.6
CC(C(=O)NCc1cccs1)n1ncn2c(cc3occc32)c1=O (configuration not stated)	3.1	-0.14
O=S1(=O)C[C@H](NCc2ccncc2)[C@@H](S(=O)(=O)c2ccccc2)C1	-0.91	0.05
O=C(c1n[nH]c(=O)c2ccccc12)N1CCN(c2ccccc2)CC1	-0.19	nt
COC(=O)c1ccc2c(=O)n3nc(Nc4ccc(F)cc4F)sc3nc2c1	nt	0.19
CCOC(=O)C1=C(O)CN=C1C	-1.7	nt
CCCn1cc(S(=O)(=O)c2ccc(OCC)cc2)c(=O)c2cc(F)ccc21	-0.71	-0.3
CC(C)Nc1cc(N(C)C)c2noc3c2c1C(=O)c1ccccc1-3	0.34	-0.29
CCCCOc1ccc(C2c3c(oc4ccccc4c3=O)C(=O)N2c2ccccn2)cc1 (configuration not stated)	-0.27	1.7
Cn1c2ccccc2c2c(C(=O)N3CCN(c4ccccc4)CC3)cn(C3CCCC3)c(=O)c21	-3	nt
CC1CC(C)CN(S(=O)(=O)c2ccc3c(c2)CC(C)N3C(=O)C2CC2)C1 (configuration not stated)	nt	-0.16
Clc1ccc(CSc2c[nH]c3ccccc23)cc1	-7.2	nt
Cc1nc(-n2cccc2)sc1C(=O)NCc1ccco1	nt	-0.8
O=C(O)c1ccc(S(=O)(=O)Nc2ccc3oc(=O)sc3c2)cc1	-6.7	2.5
CCOc1ccc(-n2c(CSc3nc(C)cc(C)n3)nnc2SCC(=O)OC)cc1	-2.1	0.9
Fc1ccc(OCc2nc(-c3ccc(-n4cccc4)cc3)no2)cc1	-0.26	0.24
O=C(CN1C(=O)CSc2ccc(C(=O)N3CCCC3)cc21)Nc1nccs1	nt	0.74
COC(=O)c1ccc(NC2SC(=O)N(c3ccccc3)C2=O)cc1 (configuration not stated)	-1.2	12
COc1ccc(Cl)cc1-n1nnc(-c2nc(-c3ccc(C)cc3)no2)c1N	nt	-0.46
Cc1[nH]nc(-c2ccc(S(=O)(=O)NCCCN3CCCC3)s2)c1C	nt	-0.57

Retrieved by compound from the entries so far, 2 records:
SMILES	CDC25B-CDK2 inh	HIV TAR-Tat
CC1CC(C)CN(S(=O)(=O)c2ccc3c(c2)CC(C)N3C(=O)C2CC2)C1 (configuration not stated)	nt	-0.16
COC(=O)c1ccc2c(=O)n3nc(Nc4ccc(F)cc4F)sc3nc2c1	nt	0.19

The results go on:
SMILES	CDC25B-CDK2 inh	HIV TAR-Tat
CSc1ccc(C2CC(=O)N3CN(C4CCCCC4)CSC3=C2C#N)cc1 (configuration not stated)	2	-0.92
Clc1cccc(-c2nnc(-c3ccno3)o2)c1	1.1	nt
Cc1cc(C)c(Nc2c(-c3ccc(Cl)cc3)c(=O)c2=O)c(C)c1	nt	0.78
O=C(Cn1c(SCCOc2ccccc2)nc2ccccc21)NC1CC1	-1.3	0.44
CCCn1c(C(O)CC)nc2ccccc21 (configuration not stated)	0.58	0.98
CCCN1CCN(C(=O)Cn2nc(C)n3cccc3c2=O)CC1	-2.5	1.6
COc1ccc(Cl)cc1NS(=O)(=O)c1cc(-c2noc(C)n2)cs1	nt	0.76
CCCCCOC(=O)C1=C(C)Nc2nnnn2C1c1ccc(OC)cc1OC (configuration not stated)	-1.8	2.5
CCCN1CCN(CCCNc2ncnc3onc(-c4ccc(Cl)cc4)c23)CC1	-1.1	0.73
Cc1cc(C)n2nc(Sc3ncccc3[N+](=O)[O-])nc2n1	-0.21	nt
Cc1cc(SCC(=O)c2cccs2)ncn1	0.76	-0.65
CC1=N/C(=C\c2sc3ccccc3c2C)C(=O)O1	-0.08	nt
CN1CCN(C(=O)C2CCN(C(=O)c3cnn(-c4ccccc4)c3-n3cccc3)CC2)CC1	-0.23	-0.53
Cc1c(C(=O)NCc2ccco2)oc2ccc(S(=O)(=O)N3CCC4(CC3)OCCO4)cc12	0.48	nt
CCCC(=NCC(C)N=C(CCC)C1=C(O)C(C(=O)OC)C(C)(C)CC1=O)C1=C(O)C(C(=O)OC)C(C)(C)CC1=O (configuration not stated)	-2.8	nt
O=C(Cn1ncc2c(=O)oc3ccccc3c21)N1CCN(C(=O)c2ccco2)CC1	0.28	nt
CCCC(C)n1[nH]c(=O)c2c(C)cc(C)nc21 (configuration not stated)	-1.2	nt
CCc1nnc(NC(=O)CSc2[nH]c(=O)ncc2C)s1	nt	0.16
Cc1c(C(=O)O)oc2ccc3c(c12)C(=O)CC(C)(C)O3	-0.46	-0.56
O=C(N=Nc1c(O)[nH]c2c(Br)cc(Br)cc12)c1ccco1	3.4	nt
CSc1cccc(NC(=O)C(CC(C)C)NS(=O)(=O)c2ccc3c(c2)CCN3C(C)=O)c1 (configuration not stated)	-1.1	-0.28
COc1ccccc1Nc1nc(-c2c(C)nc3cc(C)ccn23)cs1	-1.8	1.1
COc1cccc(/C=N/NC(=O)CSCC(=O)Nc2ccc(OC(F)(F)F)cc2)c1	-1.6	nt
Cc1ccc(CSc2ncn[nH]2)cc1	0.39	0.73
Cn1ccnc1SCC(=O)Nc1ccc(F)cc1F	-1.8	-0.52
Cc1cccc(NC(=O)CCCC(=O)OCC(=O)c2ccc(C)c([N+](=O)[O-])c2)c1	-1.5	nt
Cc1cc(=O)n2nc(N3CCCC(C(=O)NC4CCC(C)CC4)C3)sc2n1 (configuration not stated)	-1.3	1.1
Clc1ccc2noc(-c3ccccc3)c2c1	-1.1	1.8
CCC(C)(C)NS(=O)(=O)c1cc2[nH]c3c(c2cc1C)C(=O)CC(C)(C)C3	nt	1.6
O=C(c1ccccc1)c1ccc2nc(Nc3ccccc3O)c3nncn3c2c1	nt	-5.6
Cc1ccc(COc2nsnc2N2CCOCC2)cc1	1.1	0.51
O=C(CSc1nc2ncccc2[nH]1)NCc1ccco1	nt	-0.71
COc1ccc(C2OC(COc3ccc(Br)cc3)=NN2C(C)=O)cc1 (configuration not stated)	nt	1.1
Cc1nn(-c2nc3ccccc3s2)c2c1C(c1ccc(F)c(F)c1)CC(=O)N2 (configuration not stated)	nt	2.8
CCCC12CN3CC(CCC)(CN(C1)C3c1c(O)ccc3ccccc13)C2=O (configuration not stated)	-1.2	nt
CCc1nc2ccccc2n1CC(O)COc1ccc(Cl)c(C)c1 (configuration not stated)	-0.33	0.17
O=C(CCS(=O)(=O)c1ccc2c(c1)CCN2C(=O)C1CC1)Nc1ccc(F)cc1F	nt	-0.29
CCOC(=O)N1CCN(C(=O)COCc2cc(-c3ccc4c(c3)OCO4)on2)CC1	nt	-0.96
Cc1ccc(S(=O)(=O)N(C)c2cc(S(=O)(=O)Nc3ccncc3)c(C)cc2C)cc1	0.1	-0.24
COc1ccc(NC(=O)CSc2nc(-c3ccco3)nc3cc(=O)[nH]n23)cc1	nt	-0.03
CC1=Nc2cc(C(=O)NCC3CCCO3)ccc2Sc2ccc(Br)cc21 (configuration not stated)	-0.76	nt
c1ccc(CCN2CCc3nc(N4CCN(c5ncccn5)CC4)ncc3C2)cc1	nt	0.65
O=C(O)c1coc2c1/C(=N/N1CCCCC1)CCC2	-2.5	nt
COc1cc(NS(=O)(=O)c2ccc3c(c2)oc(=O)n3C)cc(OC)c1OC	-0.59	nt
CSc1ccc(CCNc2ncnc3onc(-c4ccc(F)cc4)c23)cc1	nt	0.49
O=C1Nc2ccc(Cl)cc2C(c2ccccc2)=Nc2ccccc21	-1.1	1.2
Cc1ccc(NC(=S)N(C)/N=C/c2ccccn2)cc1Cl	-1.6	nt
C/C(=N\Nc1nnc(-c2ccccc2)c(-c2ccccc2)n1)c1ccco1	-2.1	nt
CC(NC(=O)CCC1=NS(=O)(=O)c2ccccc2N1)c1ccc2c(c1)OCCO2 (configuration not stated)	nt	0.56
N[C@@H](Cc1c[nH]c2ccccc12)C(=O)O	-0.56	nt
O=C1c2cccnc2C(Nc2ccc3oc(-c4cccnc4)nc3c2)N1Cc1cccs1 (configuration not stated)	1.4	0.96
CCOC(=O)c1[nH]c(C)c(C(=O)Nc2nnc(CC)s2)c1C	-1.1	nt
Cc1ccc(C2C=C(c3ccc(Cl)cc3)Nc3nc(N4C(=O)CCC4=O)nn32)cc1 (configuration not stated)	0.48	nt
CCC1Sc2ccc(S(=O)(=O)Nc3c(C)cc(C)cc3C)cc2NC1=O (configuration not stated)	nt	1.7
O=S(=O)(NCc1ccccc1)c1ccc(-c2cc(C(F)(F)F)on2)s1	nt	0.91
CC(C)COC(=O)Cn1nnc2sc3c(c2c1=O)CCCC3	-0.25	1.2
COc1ccccc1Nc1nc(NCc2ccccc2)nc(N)c1[N+](=O)[O-]	nt	1.4
c1ccc(-c2nc3cnccn3c2NC2CCCCC2)cc1	1	nt
CSc1cccc(NC(=O)Cn2c(=O)n(C(C)C)c(=O)c3oc4ccccc4c32)c1	nt	1.7
O=C(O)COCC(=O)N(Cc1ccccc1)Cc1cccs1	-0.64	nt

(further entries)
SMILES	CDC25B-CDK2 inh	HIV TAR-Tat
CC1Cc2nc(SCC(=O)Nc3nccs3)n(-c3ccc(F)cc3)c(=O)c2S1 (configuration not stated)	0.48	1.2
O=C(Nc1cccc(C(F)(F)F)c1)c1c(O)c2cccc3c2n(c1=O)CCC3	-2.1	nt
CN1CCN(c2ccccc2NC(=O)c2cc3ccc4cccnc4c3[nH]2)CC1	nt	0.5
CCC(Sc1nc2ncccc2o1)C(=O)NCCOC (configuration not stated)	nt	0.31
COc1ccc(CN(C)c2cc(=O)n3nc(-c4ccccc4)sc3n2)cc1	nt	-0.6
O=C1CC(c2cc(F)cc(F)c2)c2c(nc(SCc3ccccc3)[nH]c2=O)N1 (configuration not stated)	-0.13	0.9
CCC1CCCCN1C(=O)CN1C(=O)CSc2ccc(S(=O)(=O)N(CC)CC)cc21 (configuration not stated)	-1.2	-0.49
CC(=O)Oc1c2c(C)[nH]nc2nc2c1c(=O)n(C)c(=O)n2C	1.3	nt
Cn1cc(C(=O)NCCN2CCOCC2)c2c1-c1ccccc1SC2	-1.5	-0.34
CCn1nc(C)c(CCNC(=O)Nc2cc(F)ccc2F)c1C	nt	0.02
Nc1c(-c2nc(-c3ccccc3F)no2)nnn1-c1cccc(F)c1	nt	1.4
CC(C)(C)C(=O)Nc1cccc(C(F)(F)F)c1C(=O)O	-0.4	nt
O=C(c1cccnc1)N(c1cc2sc(=O)oc2c2ccccc12)S(=O)(=O)c1ccccc1	12*	1.1
C=CCSc1nc(N2CCOCC2)c2c(c1C#N)CC(C)(C)OC2	0.73	nt
COc1ccc(-c2cnnc(-n3nc(C)c4c3NC(=O)CC4c3ccc4c(c3)OCO4)n2)cc1 (configuration not stated)	-2.7	0.02

By substructure: those above containing a Cl atom (13)
SMILES	CDC25B-CDK2 inh	HIV TAR-Tat
O=C(CSc1nc(-c2ccco2)cc(C(F)(F)F)n1)Nc1ccc(-n2cccc2)c(Cl)c1	-0.01	0.78
Clc1ccc(OCc2cn3ccccc3n2)c2ncccc12	-2.6	-1.1
Clc1ccc(CSc2c[nH]c3ccccc23)cc1	-7.2	nt
COc1ccc(Cl)cc1-n1nnc(-c2nc(-c3ccc(C)cc3)no2)c1N	nt	-0.46
Clc1cccc(-c2nnc(-c3ccno3)o2)c1	1.1	nt
Cc1cc(C)c(Nc2c(-c3ccc(Cl)cc3)c(=O)c2=O)c(C)c1	nt	0.78
COc1ccc(Cl)cc1NS(=O)(=O)c1cc(-c2noc(C)n2)cs1	nt	0.76
CCCN1CCN(CCCNc2ncnc3onc(-c4ccc(Cl)cc4)c23)CC1	-1.1	0.73
Clc1ccc2noc(-c3ccccc3)c2c1	-1.1	1.8
CCc1nc2ccccc2n1CC(O)COc1ccc(Cl)c(C)c1 (configuration not stated)	-0.33	0.17
O=C1Nc2ccc(Cl)cc2C(c2ccccc2)=Nc2ccccc21	-1.1	1.2
Cc1ccc(NC(=S)N(C)/N=C/c2ccccn2)cc1Cl	-1.6	nt
Cc1ccc(C2C=C(c3ccc(Cl)cc3)Nc3nc(N4C(=O)CCC4=O)nn32)cc1 (configuration not stated)	0.48	nt

Outcome played no part in choosing rows (roughly 0.94% active in at least one column).
